Screening results (PubChem)
AF4-AF9 inh – blocks AF4 peptide binding to human AF9; AlphaScreen, biotin-AF4 peptide binding to FLAG-AF9; inhibition, % at 10 µM; hit rate 0.47% among 350,000; AID 651704;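 active means every replicate reaching a set inhibition limit, whatever the replicate mean, cut at about 25% in these data; inconclusive means mean inhibition reaches that limit but some replicates miss it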;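 further: 0% = plate neutral control median and 100% = total signal loss; the record names both 10 and 1 µM as test concentration; the first replicate is given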
Target sequence (P42568 whole entry, looked up): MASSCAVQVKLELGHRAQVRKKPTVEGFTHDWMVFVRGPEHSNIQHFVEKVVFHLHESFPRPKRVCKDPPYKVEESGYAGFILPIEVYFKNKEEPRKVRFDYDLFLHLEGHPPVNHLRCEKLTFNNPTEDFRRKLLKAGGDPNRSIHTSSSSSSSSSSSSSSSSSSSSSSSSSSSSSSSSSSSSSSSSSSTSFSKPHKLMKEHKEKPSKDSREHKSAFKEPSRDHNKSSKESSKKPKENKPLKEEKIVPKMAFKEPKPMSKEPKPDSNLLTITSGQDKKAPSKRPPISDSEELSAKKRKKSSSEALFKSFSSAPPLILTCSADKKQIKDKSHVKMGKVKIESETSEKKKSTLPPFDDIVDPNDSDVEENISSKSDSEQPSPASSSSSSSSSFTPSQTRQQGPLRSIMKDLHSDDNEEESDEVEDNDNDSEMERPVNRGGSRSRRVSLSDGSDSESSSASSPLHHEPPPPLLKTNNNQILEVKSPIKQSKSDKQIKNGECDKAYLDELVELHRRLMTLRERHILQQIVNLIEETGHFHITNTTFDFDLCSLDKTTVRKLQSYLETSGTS
ALR inh – inhibitors of human sulfhydryl oxidase ALR; P55789; purified ALR, DTT oxidation, H2O2 HRP-luminol luminescence; inhibition, % (no concentration beside the values); hit rate 3.8% among 290,000;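 active means mean and each replicate at 75% or more; inconclusive means only one of the two met; inactive means neither met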;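 further: stock transfer was 7.5 nL into about 7.5 µL; 0% = neutral wells and 100% = wells with inactivated enzyme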
Ecoli growth – blocks Escherichia coli growth | hit rate 0.21% among 330,000 | OD600, 23 h; active compounds read low | OD600 absorbance (concentration not given with the values);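 active means OD600 absorbance below the run mean of sample wells minus 3.6 SD, in any replicate, cut at about 0.56 in these data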;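 further: stock transfer was 300 nL into about 60 µL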
FGF22 binding – shifts melting point of recombinant human FGF22. Q9HCT0. recombinant FGF22 thermal shift, SYPRO orange fluorescence; percent of sucrose octasulfate shift, DMSO zero. calls only at 9.99 µM. hit rate 1.5% among 340,000. AID 651658;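 active means melting point raised past a set limit in the mean and every replicate; inconclusive means no clear call; three in four hits are not shown here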
rRNA inh HTS – inhibits bacterial ribosomal RNA function over humanized ribosomes | E. coli WT GFP vs humanized-ribosome RFP mutants, fluorescence, 24 h; active compounds read low; DMSO median 0, no signal -100 | GFP signal change (wild-type ribosome), % (test concentration not listed) | hit rate 1.6% among 350,000 | AID 720706;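 active means significant combined selectivity score with lowered wild-type GFP, culture density cut under 30%, mutant RFP and density less affected; inactive means any of these conditions unmet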; further: one replicate is shown; some compounds called inactive have numbers as strong as hits
HNF4A DNA FP – change in binding of human HNF4 alpha to DNA; hit rate 0.3% among 360,000; AID 1224865; activity change, % at 10 µM; HNF4a-FITC DNA binding, fluorescence polarization, 1 h; in the data active means activity change above about 30%, passing the limit was not always enough;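 further: controls were the assay level and a saturating level of protein; the project sought stronger binding though the title names inhibitors; some compounds called inactive have numbers as strong as hits; positive values seem to mean higher polarization but the record does not say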
Target sequence (P41235 whole entry, looked up): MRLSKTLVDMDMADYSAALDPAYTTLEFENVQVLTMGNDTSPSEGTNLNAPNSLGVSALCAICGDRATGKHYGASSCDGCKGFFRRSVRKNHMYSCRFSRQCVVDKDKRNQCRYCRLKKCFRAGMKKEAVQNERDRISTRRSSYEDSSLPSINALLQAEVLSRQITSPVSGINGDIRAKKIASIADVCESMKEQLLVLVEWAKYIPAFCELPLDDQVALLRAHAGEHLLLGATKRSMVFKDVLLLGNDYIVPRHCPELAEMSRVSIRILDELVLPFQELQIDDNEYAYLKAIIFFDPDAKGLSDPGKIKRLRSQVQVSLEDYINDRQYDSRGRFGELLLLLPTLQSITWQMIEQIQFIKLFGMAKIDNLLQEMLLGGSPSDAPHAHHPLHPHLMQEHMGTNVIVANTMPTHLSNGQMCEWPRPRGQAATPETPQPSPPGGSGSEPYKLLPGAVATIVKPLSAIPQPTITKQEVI
Vif A3G – inhibitors of Vif binding to APOBEC3G peptide, primary screen, biochemical, TR-FRET, GST-Vif 1-94, biotin-A3G peptide, dose response retest (AID 1117319); inhibition, %, or IC50 in µM where a hit was titrated; hit rate 0.57% among 260,000; TR-FRET GST-Vif / biotin-A3G peptide binding; higher % means a stronger effect; test concentration not given here; strong numbers were not always called active;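 active means above the screen mean plus three standard deviations and confirmed in dose response; inconclusive means results disagree or hit not tested in dose response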;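 further: Vif residues 1-94 fused to GST binding biotinylated APOBEC3G peptide 110-148; 0% = full assay without inhibitor and 100% = GST in place of GST-Vif; retest series ran down from 100 µM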
rRNA inh HTS OD600 – recorded beside rRNA inh HTS, whose call it bears; OD600 change, %; measured here: OD600 growth;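 optical density of the mix in the first replicate; 0 = DMSO median and -100 = no signal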
rRNA inh HTS RFP – further read-out of rRNA inh HTS, marked with its call; RFP signal change, %; measured here: RFP humanized mutant strains;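 first replicate; 0 = DMSO median and -100 = no signal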
* hit, by the source's call; i = inactive; ? = inconclusive; / = not tested or not shown. These rows are one share of the data (hit frequency here may not be typical).

Start of the data: the first 2 compounds, ahead of the listing:
SMILES	AF4-AF9 inh	ALR inh	Ecoli growth	FGF22 binding	rRNA inh HTS	rRNA inh HTS OD600	rRNA inh HTS RFP	HNF4A DNA FP	Vif A3G
O=C(Nc1nnc(SCc2ccc(F)cc2)s1)C1CC(=O)N(Cc2ccccc2)C1 (centres undefined)	/	0	/	/	/	/	/	3.1	4%
COC(=O)[C@@H]1[C@@H](CO)[C@@H]2Cn3c(ccc(-c4ccccc4F)c3=O)[C@@H]2N1CC1CCOCC1	-0.5	/	/	i	2	-6	6.9	/	/

Main list, from the first entry:
SMILES	AF4-AF9 inh	ALR inh	Ecoli growth	FGF22 binding	rRNA inh HTS	rRNA inh HTS OD600	rRNA inh HTS RFP	HNF4A DNA FP	Vif A3G
O=C(Nc1nnc(SCc2ccc(F)cc2)s1)C1CC(=O)N(Cc2ccccc2)C1 (centres undefined)	/	0	/	/	/	/	/	3.1	4%
COC(=O)[C@@H]1[C@@H](CO)[C@@H]2Cn3c(ccc(-c4ccccc4F)c3=O)[C@@H]2N1CC1CCOCC1	-0.5	/	/	i	2	-6	6.9	/	/
CCOc1ccc(S(=O)(=O)N2CCN(Cc3ccc4c(c3)OCO4)CC2)cc1OCC	-1.5	/	/	/	1	-3	-0.3	0.2	2%
CC(C)(C)OC(=O)N1CC=C2C(C#N)=C(N)C(C#N)(C#N)[C@H](c3cccnc3)[C@H]2C1	/	3	0.65	/	/	/	/	-16	15%
C=CCn1cnc2c(oc3ccccc32)c1=O	-1.3	-2	0.63	i	12	19	3.7	5.1	6%
Cc1cccc(-c2nc3ccc(C(=O)NCCN4CCN(C)CC4)cc3nc2-c2cccc(C)c2)c1	?	18	0.72	i	-59	-80	-16	3.6	3%
COc1cc(/C=N\NC(C)=O)ccc1OC/C=C/c1ccccc1	0.0	-27	/	i	0	2	-0.4	1.0	/
S=c1[nH]nc(C2CCCCC2)n1/N=C/c1cccc(Br)c1	-4.9	/	/	i	16	12	-0.8	-3.4	-3%
O=C(NC1CCS(=O)(=O)C1)c1ccc(S(=O)(=O)N2CCCC2)cc1 (centres undefined)	0.4	0	0.65	i	6	0	1.5	3.8	/
C[C@@H]1CCCCO[C@H](CN(C)C(=O)C2CCCCC2)[C@@H](C)CN([C@H](C)CO)C(=O)c2cc(NS(=O)(=O)c3ccc(F)cc3)ccc2O1	-1.4	/	/	i	1	5	2.6	/	/
O=C(Nc1ccc(S(=O)(=O)Nc2ncccn2)cc1)C1=COCCO1	-7.5	97*	/	i	-1	-2	8.0	13	/
C[C@]12c3[nH]c4ccc(Cl)cc4c3CCN1C(=O)[C@@H](CC(=O)NCc1ccco1)C[C@@H]2C(=O)N1CCOCC1	4.0	/	0.7	i	-23*	-15*	4.9*	0.1	/
CSCCC(NC(=O)c1ccccc1Cl)C(=O)NNC(=O)c1csc(N2CCOCC2)n1 (centres undefined)	0.2	0	0.71	i	12	11	-0.8	-4.0	-8%
CC(C)[C@@H](C)NC(=O)N(C)C[C@@H]1OCc2ccccc2-c2ccccc2C(=O)N([C@H](C)CO)C[C@H]1C	-8.0	/	/	i	-2	1	-7.0	/	/
CC(C)COc1ccc(C(=O)N2C(=O)c3ccc(N)cc3C2=O)cc1	-31	-22	0.69	i	3	2	-1.5	-1.8	/
Cc1noc(C)c1COc1ccc(C(=O)NNC(=O)c2ccccc2)cc1	-11	-1	0.67	i	5	-1	-1.6	-0.3	-7%
CN1CCN(CCNC(=O)c2ccc(CS(=O)c3ccc(Br)cc3)o2)CC1 (centres undefined)	-7.8	/	/	i	4	5	3.1	-5.4	/
COC(=O)CSc1nc(-c2ccccc2)nc2ccccc12	-2.2	-3	0.7	i	4	-11	-4.3	1.3	-27%
Cc1cccc(NC(=S)NC(=O)c2ccco2)c1C	2.7	6	0.7	i	4	-5	0.2	4.1	1%
O=C(Nc1ccc2c(c1)[C@H]1C[C@H](CC(=O)N3CCOCC3)O[C@@H](CO)[C@H]1O2)C1CCOCC1	0.0	/	/	i	4	9	-3.7	/	/
Nc1ccc(S(=O)(=O)N2CCCC2)cc1Cl	1.3	21	0.71	i	9	4	-1.8	3.3	-4%
O=C(NCC(O)CO)c1ccc2[nH]c3ccccc3c2c1 (centres undefined)	/	-8	0.67	/	-2	1	-2.5	0.1	8%
O=C(O)CCN1C(=O)c2ccc(NC(=O)CCc3ccccc3)cc2C1=O	-1.5	-2	0.67	i	11	15	2.5	-1.8	/
COc1ccc(CN(C)CC(=O)N2CCc3ccccc3C2)cc1	1.2	-5	0.64	i	3	4	-0.3	1.5	/
Cn1c(C(=O)N(Cc2ccccc2)Cc2ccccn2)cc2sccc21	/	-24	0.69	/	/	/	/	0.9	3%
CCS(=O)(=O)c1nc2ccccc2n1CC(=O)N1CCOCC1	/	3	0.76	/	/	/	/	-3.0	-3%
Nc1ncnc(Nc2cc(Cl)cc(Cl)c2)c1[N+](=O)[O-]	-11	/	/	i	7	1	-5.6	-5.6	31%
CCOC(=O)C1=C(C)N(CC)C(=S)NC1c1ccc(Cl)cc1 (centres undefined)	6.9	34	0.66	i	-15	-25	-8.0	2.2	16%
O=C(CN1C(=O)NC2(CCCC2)C1=O)N1CCN(S(=O)(=O)c2ccccc2F)CC1	-0.5	-5	0.7	i	13	10	-2.5	0.9	-4%
N#CC(c1ccccc1O)N1N=C(c2ccccc2)CC1c1ccccc1 (centres undefined)	7.1	8	0.66	/	-18	-3	9.4	3.6	-5%
CO[C@H]1CN(C)C(=O)c2cc(NC(C)=O)ccc2OC[C@@H](C)N(CCc2ccccc2)C[C@@H]1C	6.3	/	/	i	0	-4	-0.5	/	/
O=C(CN1C(=O)NC2(CCCC2)C1=O)N1CCN(C(=O)c2ccco2)CC1	/	-7	0.69	/	/	/	/	-1.5	?
Cc1cc(CNC(=O)CC2C(=O)NCCN2Cc2ccc(-c3ccccc3)cc2)nn1C (centres undefined)	-87	-5	0.69	i	7	2	3.7	-0.4	?
CC(C)NS(=O)(=O)c1ccc(NC(=O)NC2CCCCC2)cc1	2.9	3	0.63	i	5	5	-7.4	-3.9	-6%
CCOC(=O)/C(CCC[N+](C)(CC)CC)=N\O	-1.8	4	/	i	/	/	/	-0.6	2%
CNC[C@H]1Oc2ccc(NC(=O)Cn3cnnn3)cc2CC(=O)N([C@@H](C)CO)C[C@H]1C	-0.2	/	/	i	6	5	-0.6	/	/
C[C@@H]1CN([C@@H](C)CO)C(=O)Cc2cc(NC(=O)C3CC3)ccc2O[C@H]1CN(C)C(=O)Nc1ccc2c(c1)OCO2	0.8	/	/	i	2	3	-0.4	/	/
CC(C)Oc1ccc2nnnn2n1	/	2	0.74	/	13	9	3.8	-2.3	-1%
Cc1noc(C)c1COc1ccc(C(=O)N2CCCC(C(N)=O)C2)cc1 (centres undefined)	-1.5	-1	0.65	/	29	31	7.0	1.9	/
c1cn2cc(-c3ccc(CN4CCOCC4)cc3)ccc2n1	1.6	/	/	i	7	14	-1.5	4.9	/
N/C(=N\OC(=O)Nc1ccc(Cl)c(Cl)c1)c1ncc(C(F)(F)F)cc1Cl	/	4	0.72	/	/	/	/	-3.1	-5%
COc1ccc(-c2cc(NC(C)=O)c3ncc(-c4ccc(OC)c(OC)c4)n3c2)c(OC)c1	-0.7	/	/	i	2	-7	4.1	2.9	/
Cn1c(=O)[nH]c(=O)c2c1nc(Br)n2C/C=N/NC(N)=S	-2.4	26	/	i	8	13	4.9	/	/
CC1(C)CNc2cc(N)ccc2S1	63*	84*	0.71	/	7	11	3.7	5.8	28%
Cc1ccccc1-n1nnnc1SCC(N)=O	/	-4	0.68	/	/	/	/	-0.7	-2%
CCOc1cc(/C=C2\SC(N3CCCC(C)C3)=NC2=O)ccc1O (centres undefined)	-0.9	98*	0.66	i	-10	6	14	8.2	/
CC(C)=CC(=O)Nc1nnc(-c2cccnc2)s1	/	-6	0.76	/	/	/	/	-0.3	11%
CCCCN1C(=O)C(CC(=O)NCc2ccco2)CC(C(=O)N2CCOCC2)=C1C (centres undefined)	0.2	/	/	i	9	10	-0.3	-5.8	-1%
Cc1ccc(NC(=O)Cc2nnc(SCC(=O)Nc3nncs3)n2C)cc1	0.1	/	0.73	i	7	-1	0.4	3.1	/
Cc1ccc(C(=O)NC(=S)NCC2CCCO2)cc1[N+](=O)[O-] (centres undefined)	1.5	68	0.63	i	-4	-4	-0.8	-3.4	-11%
CC(C)Oc1ccc(S(=O)(=O)N2CCOCC2)cc1NC(=O)C1CCC1	2.5	/	0.69	i	4	3	0.6	5.0	-2%
CCOc1ccccc1NC(=O)Cn1c(-c2ccc(Cl)cc2)noc1=O	-0.1	-2	0.71	i	-12	-28	22	-0.5	80%
CCSc1nnc(NC(=O)C2CCCCC2C(=O)O)s1 (centres undefined)	/	-2	0.66	/	/	/	/	-2.2	2%
CC=Cc1ccc2n(c1=O)C[C@@H]1[C@@H](CO)[C@H](C(=O)NCC)N(Cc3cocn3)[C@H]21 (mixture of isomers)	-4.3	/	/	i	4	-5	-0.3	/	/
CC(C)(C)C(C(=O)NC1CCCC1)N1CCN(c2ncccc2C#N)CC1 (centres undefined)	3.9	/	/	i	3	-23	-2.0	-32	/
COc1ccc(S(=O)(=O)Nc2ccc3c(c2)C(=O)N(C)C[C@@H](OC)[C@H](C)CN(Cc2cc(F)ccc2F)[C@H](C)CO3)cc1	3.2	/	/	i	0	-5	2.2	/	/
Cc1c(NC(=S)NC(=O)c2ccco2)cccc1-c1nc2ncccc2o1	/	3	0.68	/	/	/	/	2.1	-18%
CSc1nc(C)cc(-n2ccc(=O)[nH]c2=O)n1	/	-11	0.66	/	/	/	/	0.7	24%
Cc1cc(C)cc(N(CCC#N)C(=O)CSC2=Nc3ccccc3C3CC=NN23)c1 (centres undefined)	0.2	-7	0.71	i	-17	-26	-0.3	3.1	-4%
CC1CCC(NC(=O)C2CC(=O)N(c3ccc(Cl)cc3)C2)CC1 (centres undefined)	-2.7	-14	0.7	i	2	4	-3.9	0.0	0%

Quoted from the listing:
In Ecoli growth, CC(C)Oc1ccc(S(=O)(=O)N2CCOCC2)cc1NC(=O)C1CCC1 is entered as 0.69
In Vif A3G, CC(C)=CC(=O)Nc1nnc(-c2cccnc2)s1 is entered as 11%
In ALR inh, CCSc1nnc(NC(=O)C2CCCCC2C(=O)O)s1 (centres undefined) is entered as -2
In Vif A3G, CSc1nc(C)cc(-n2ccc(=O)[nH]c2=O)n1 is entered as 24%

Continued:
SMILES	AF4-AF9 inh	ALR inh	Ecoli growth	FGF22 binding	rRNA inh HTS	rRNA inh HTS OD600	rRNA inh HTS RFP	HNF4A DNA FP	Vif A3G
Cc1cc(Br)ccc1SCC(=O)OCC(=O)NCc1ccco1	-2.1	7	0.7	i	-18*	4.5*	4.0*	-22	?
C[C@H](CO)N1C[C@H](C)[C@@H](CN(C)Cc2ccc3c(c2)OCO3)Oc2ccc(NS(=O)(=O)c3ccc(F)cc3)cc2C1=O	-0.5	/	/	i	5	3	0.1	/	/
CCNC(=O)C[C@@H]1CC[C@H](NC(=O)C2CCOCC2)[C@@H](CO)O1	1.3	/	/	i	5	14	1.3	/	/
Cc1cccc(S(=O)(=O)NCCNS(=O)(=O)c2cccc(C)c2)c1	-1.2	/	0.65	i	-6	-2	1.1	6.7	/
CC(C(=O)Nc1cccnc1)C1Sc2ccccc2NC1=O (centres undefined)	-4.8	-12	0.69	i	6	3	1.6	1.8	14%
CCCN1C[C@@H](C)[C@H](OC)CN(C)C(=O)c2cc(NC(=O)C3CCOCC3)ccc2OC[C@@H]1C	-1.6	/	/	i	3	1	0.6	/	/
O=C(NCCSCc1ccc(Cl)cc1)c1cccs1	-0.6	-6	0.63	i	-20	-18	1.7	0.2	1%
CCN(CC)c1ccc(/C=N/NC(=O)c2nnn(-c3nonc3N)c2-c2ccc(C)cc2)cc1	-1.9	6	/	i	-1	-4	-2.4	1.4	/
